Screens as filed in PubChem BioAssay.
Yeast UUG start: modulators of yeast start codon fidelity, primary screen, whole organism, S. cerevisiae, single point, plate reader | S. cerevisiae UUG-firefly luciferase reporter, luminescence/redox ratio | activity score, % at 18.7 µM | 0.13% of 350,000 active | AID 602363, 2012;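 active = replicate mean at a twofold rise or more, about +100% in these data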;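 note: firefly luciferase made from a UUG start codon reports start codon fidelity; reporter light over untreated wells divided by growth signal over untreated wells; some hits fall short of that in this replicate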
Env fusion inh: inhibitors of HIV-1 Env-driven cell-cell fusion, primary screen, HeLa-JRFL effector, CEM21 target cells, luciferase | inhibition, % at 12.3 µM | 1.1% of 360,000 active | AID 651610, 2012;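 active = mean replicate inhibition score of at least 50 and every replicate individually at or above 50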;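 note: 0% = plate neutral controls and 100% = maraviroc near 300 nM; one replicate is shown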
The depositor's hits bear a star; [ ] = remark or other dose. Only part of the results is shown; rates above refer to the full screens.

SMILES	Yeast UUG start	Env fusion inh
COc1ccc(S(=O)(=O)Nc2cccc3c2O[C@H](CN(C)S(=O)(=O)c2cccs2)[C@@H](C)CN([C@@H](C)CO)C3=O)cc1	-2.9	-18.3[16.7 µM]
COCCOC(=O)N1C(=O)[C@@]2(c3cc(C#CCCO)ccc31)[C@H](C(=O)N1CCN(c3ncccn3)CC1)[C@H]1C(=O)O[C@H](c3ccccc3)[C@H](c3ccccc3)N1[C@@H]2c1ccccc1OCCO	0.4	-12.2[16.7 µM]
COc1ccc(NC(=O)Nc2ccc3c(c2)CC(=O)N([C@H](C)CO)C[C@@H](C)[C@@H](CN(C)C(=O)Nc2cccc4ccccc24)O3)cc1	-2.4	13.1[16.7 µM]
COc1ccc(NC(=O)N(C)C[C@H]2OCCCC[C@@H](C)Oc3ccc(NC(=O)NC(C)C)cc3C(=O)N([C@@H](C)CO)C[C@H]2C)cc1	7.0	32.6[16.7 µM]
C[C@@H]1CN([C@@H](C)CO)C(=O)c2cc(NS(=O)(=O)c3ccc(F)cc3)ccc2O[C@H]1CN(C)S(=O)(=O)c1ccccc1	21.2	-17.8[16.7 µM]
COc1ccc(NC(=O)Nc2ccc3c(c2)C(=O)N([C@H](C)CO)C[C@H](C)[C@H](CN(C)C(=O)CCC(F)(F)F)OCCCC[C@@H](C)O3)cc1	-5.5	-4.9[16.7 µM]
CS(=O)(=O)N1[C@H](C#N)[C@H](c2ccc(-c3ccccc3F)cc2)[C@H]1CO	-2.7	-0.9[16.7 µM]
C[C@H]1CN([C@@H](C)CO)C(=O)Cc2cc(NC(=O)Cn3cnnn3)ccc2O[C@H]1CN(C)Cc1ccc2c(c1)OCO2	-4.9	7.4[16.7 µM]
Cc1ccc(S(=O)(=O)N(C)C[C@H]2Oc3ccc(NS(=O)(=O)c4cccs4)cc3CC(=O)N([C@@H](C)CO)C[C@@H]2C)cc1	9.4	8.4[16.7 µM]
CNC[C@@H]1Oc2ccc(NC(=O)Nc3ccc(C(F)(F)F)cc3)cc2C(=O)N([C@H](C)CO)C[C@@H]1C	6.5	2.6[16.7 µM]
C[C@@H]1CCCCO[C@H](CN(C)S(=O)(=O)c2ccccc2)[C@@H](C)CN([C@@H](C)CO)C(=O)c2cc(NS(C)(=O)=O)ccc2O1	3.6	8.1[16.7 µM]
C[C@H](CO)N1C[C@H](C)[C@@H](CN(C)C(=O)Nc2cccc3ccccc23)OCCCC[C@H](C)Oc2ccc(NC(=O)NC3CCCCC3)cc2C1=O	-12.7	18.8[16.7 µM]
CCC(=O)N1C[C@@H](C)[C@H](OC)CN(C)C(=O)c2cc(NC(=O)c3cnccn3)ccc2OC[C@@H]1C	3.2	6.9[16.7 µM]
C[C@H](CO)N1C[C@H](C)[C@@H](CN(C)Cc2ccccc2)Oc2ccc(NC(=O)Cc3cn(C)c4ccccc34)cc2C1=O	9.5	9.5[16.7 µM]
CC(C)NC(=O)N(C)C[C@H]1Oc2ncc(C#Cc3ccncc3)cc2C(=O)N([C@@H](C)CO)C[C@H]1C	-14.6	5.0[16.7 µM]
C[C@@H]1CN([C@H](C)CO)C(=O)Cc2cc(N(C)C)ccc2O[C@H]1CN(C)S(=O)(=O)c1cn(C)cn1	-2.9	-6.5[16.7 µM]
C[C@H]1CN([C@@H](C)CO)C(=O)c2cc(C#CCN(C)C)cnc2O[C@@H]1CN(C)Cc1ccncc1	-17.0	-13.3[16.7 µM]
Cc1noc(C)c1S(=O)(=O)Nc1ccc2c(c1)C(=O)N([C@@H](C)CO)C[C@@H](C)[C@H](CN(C)C(=O)NC(C)C)O2	2.2	15.7[16.7 µM]
C[C@@H]1CN([C@H](C)CO)C(=O)c2cc(C#CC(C)(C)O)cnc2O[C@H]1CN(C)Cc1cccc(C(=O)O)c1	4.0	-8.3[16.7 µM]
C[C@H](CO)N1C[C@H](C)[C@@H](CN(C)C(=O)Cc2ccccc2)OCCCC[C@H](C)Oc2ccc(NS(=O)(=O)c3ccc(F)cc3)cc2C1=O	-5.0	-26.3[16.7 µM]
C[C@@H]1CN([C@@H](C)CO)C(=O)Cc2cc(NS(=O)(=O)c3ccc(F)cc3)ccc2O[C@@H]1CN(C)S(=O)(=O)c1cccs1	8.4	2.3[16.7 µM]
COC(=O)C[C@H]1C[C@@H]2c3cc(NS(=O)(=O)c4ccc(F)cc4)ccc3O[C@@H]2[C@H](CO)O1	1.4	-14.3[16.7 µM]
C[C@H]1CN([C@@H](C)CO)S(=O)(=O)c2ccc(C#CC3CC3)cc2O[C@H]1CN(C)C(=O)CC1CC1	11.7	-5.4[16.7 µM]
CNC[C@H]1Oc2ccc(NS(=O)(=O)c3cn(C)cn3)cc2CC(=O)N([C@H](C)CO)C[C@@H]1C	-9.2	1.0[16.7 µM]
CCCNC(=O)N(C)C[C@@H]1Oc2cc(C#C[C@@H](C)O)ccc2S(=O)(=O)N([C@@H](C)CO)C[C@H]1C	2.4	-2.8[16.7 µM]

Next part.
SMILES	Yeast UUG start	Env fusion inh
C[C@@H]1CN([C@@H](C)CO)C(=O)Cc2cc(NC(=O)c3ccncc3)ccc2O[C@H]1CN(C)C(=O)Nc1ccc2c(c1)OCO2	-12.5	-6.5[16.7 µM]
CC(C)NC(=O)NCC[C@H]1CC[C@@H](NC(=O)CN(C)C)[C@@H](CO)O1	-3.9	0.2[16.7 µM]
CO[C@@H]1CN(C)C(=O)c2ccc(NC(=O)c3ccc(F)cc3)cc2OC[C@H](C)N(C)C[C@@H]1C	-0.4	-5.4[16.7 µM]
O=C(C[C@@H]1CC[C@H](NC(=O)c2ccccc2)[C@@H](CO)O1)Nc1ccc(-c2ccccc2)cc1	-18.9	34.9[16.7 µM]
C[C@@H]1CCCCO[C@@H](CN(C)C(=O)C2CCCCC2)[C@H](C)CN([C@@H](C)CO)C(=O)c2cc(NS(=O)(=O)c3ccc(Cl)cc3)ccc2O1	-15.3	-26.3[16.7 µM]
COCC(=O)N(C)C[C@H]1Oc2cc(C#CC3CC3)ccc2S(=O)(=O)N([C@H](C)CO)C[C@H]1C	29.2	16.2[16.7 µM]
N#C[C@H]1[C@@H](c2ccc(C#CC3CCCC3)cc2)[C@H](CO)N1S(=O)(=O)c1ccccc1	-10.7	-21.1[16.7 µM]
CCCC#Cc1ccc2c(c1)O[C@@H](CN(C)C(=O)c1ccccc1)[C@@H](C)CN([C@H](C)CO)S2(=O)=O	12.8	0.3[16.7 µM]
CCNC(=O)C[C@@H]1CC[C@H](NS(=O)(=O)c2ccc(F)cc2)[C@H](CO)O1	-21.1	-1.9[16.7 µM]
N#C[C@H]1[C@@H](c2ccccc2)[C@H](CO)N1C(=O)Cc1ccccn1	8.5	-4.5[16.7 µM]
C[C@@H]1CCCCO[C@H](CN(C)C)[C@H](C)CN([C@H](C)CO)C(=O)c2cc(NS(=O)(=O)c3ccc(Cl)cc3)ccc2O1	15.2	-2.1[16.7 µM]
CCCC#Cc1cnc2c(c1)C(=O)N([C@H](C)CO)C[C@@H](C)[C@@H](CN(C)C(=O)NC1CCCC1)O2	-9.5	12.9[16.7 µM]
C[C@@H]1CN([C@@H](C)CO)C(=O)c2cc(NS(=O)(=O)c3ccccc3)ccc2O[C@@H](C)CCCCO[C@H]1CN(C)C	2.3	-5.7[16.7 µM]
CCCC(=O)Nc1ccc2c(c1)C(=O)N(C)[C@H]1CC[C@H](CC(=O)Nc3ccc(F)cc3)O[C@@H]1CO2	-3.2	7.9[16.7 µM]
C[C@@H]1CN([C@@H](C)CO)C(=O)c2cc(/C=C/c3ccccc3)cnc2O[C@@H]1CN(C)S(=O)(=O)c1ccccc1F	-0.2	-7.0[16.7 µM]
CCCC(=O)Nc1ccc2c(c1)OC[C@@H](C)N(Cc1ccccc1)C[C@H](C)[C@@H](OC)CN(C)C2=O	-4.6	-8.6[16.7 µM]
CO[C@H]1CN(C)C(=O)c2cc(NS(=O)(=O)c3ccc(Cl)cc3)ccc2OC[C@@H](C)N(C)C[C@@H]1C	18.2	60.9*[16.7 µM]
C[C@@H]1CCCCO[C@@H](CN(C)CC2CCCCC2)[C@H](C)CN([C@@H](C)CO)C(=O)c2cc(NC(=O)C3CCCCC3)ccc2O1	55.7	16.1[16.7 µM]
C[C@H]1CN([C@@H](C)CO)C(=O)c2cc(-c3cccc(F)c3)cnc2O[C@H]1CN(C)Cc1cccnc1	-7.1	4.1[16.7 µM]
C[C@H]1CN([C@@H](C)CO)C(=O)c2cccc(NS(=O)(=O)c3cccs3)c2O[C@H]1CN(C)C(=O)Nc1ccc(F)cc1	5.1	-14.5[16.7 µM]
CN(C)CCCNC(=O)C[C@H]1C=C[C@@H](NC(=O)c2ccccc2F)[C@H](CO)O1	9.7	7.3[16.7 µM]
C[C@H]1CN([C@@H](C)CO)C(=O)c2cc(NC(=O)Nc3ccccc3)ccc2O[C@H]1CN(C)Cc1ccccc1	5.9	-2.5[16.7 µM]
Cc1ccc(S(=O)(=O)N[C@@H]2CC[C@@H](CC(=O)NCc3ccncn3)O[C@@H]2CO)cc1	-14.3	16.1[16.7 µM]
CC(C)C#Cc1ccc2c(c1)O[C@H](CN(C)CC1CC1)[C@H](C)CN([C@H](C)CO)S2(=O)=O	11.3	-4.5[16.7 µM]
Cc1ccc(S(=O)(=O)N[C@@H]2CC[C@@H](CCNC(=O)CN3CCOCC3)O[C@@H]2CO)cc1	-9.0	6.0[16.7 µM]

Six entries from above, with two lines to a compound:
Values in the order: Yeast UUG start	Env fusion inh
C[C@@H]1CN([C@@H](C)CO)C(=O)c2cc(/C=C/c3ccccc3)cnc2O[C@@H]1CN(C)S(=O)(=O)c1ccccc1F
  -0.2	-7.0[16.7 µM]
CCCC(=O)Nc1ccc2c(c1)OC[C@@H](C)N(Cc1ccccc1)C[C@H](C)[C@@H](OC)CN(C)C2=O
  -4.6	-8.6[16.7 µM]
CO[C@H]1CN(C)C(=O)c2cc(NS(=O)(=O)c3ccc(Cl)cc3)ccc2OC[C@@H](C)N(C)C[C@@H]1C
  18.2	60.9*[16.7 µM]
C[C@@H]1CCCCO[C@@H](CN(C)CC2CCCCC2)[C@H](C)CN([C@@H](C)CO)C(=O)c2cc(NC(=O)C3CCCCC3)ccc2O1
  55.7	16.1[16.7 µM]
C[C@H]1CN([C@@H](C)CO)C(=O)c2cc(-c3cccc(F)c3)cnc2O[C@H]1CN(C)Cc1cccnc1
  -7.1	4.1[16.7 µM]
C[C@H]1CN([C@@H](C)CO)C(=O)c2cccc(NS(=O)(=O)c3cccs3)c2O[C@H]1CN(C)C(=O)Nc1ccc(F)cc1
  5.1	-14.5[16.7 µM]

(more compounds)
SMILES	Yeast UUG start	Env fusion inh
COc1cccc(NC(=O)N[C@@H]2CC[C@@H](CC(=O)NCc3ccccn3)O[C@H]2CO)c1	-7.3	12.6[16.7 µM]
CO[C@H]1CN(C)C(=O)c2cc(NC(=O)c3ccccc3)ccc2OC[C@H](C)N(C(=O)C2CC2)C[C@@H]1C	17.4	-5.6[16.7 µM]
COC(=O)C[C@H]1CC[C@H]2[C@H](COc3ccc(NC(=O)Nc4ccc(C)cc4)cc3C(=O)N2C)O1	12.4	1.2[16.7 µM]
COCC(=O)N(C)C[C@H]1Oc2cc(C#Cc3ccccc3)ccc2S(=O)(=O)N([C@H](C)CO)C[C@H]1C	10.3	-25.4[16.7 µM]
Cc1noc(C)c1S(=O)(=O)N(C)C[C@H]1Oc2ccc(NS(=O)(=O)c3cccs3)cc2CC(=O)N([C@@H](C)CO)C[C@H]1C	10.8	16.8[16.7 µM]
CC(C)CC#Cc1cnc2c(c1)C(=O)N([C@H](C)CO)C[C@@H](C)[C@@H](CN(C)Cc1ccccn1)O2	-16.5	-25.9[16.7 µM]
CCCN(C)C[C@@H]1Oc2ncc(C#CC3CC3)cc2C(=O)N([C@H](C)CO)C[C@@H]1C	13.1	20.5[16.7 µM]
COCC(=O)Nc1ccc2c(c1)C(=O)N(C)C[C@H](OC)[C@@H](C)CN(Cc1ccccc1)[C@H](C)CO2	23.4	-25.9[16.7 µM]
COCC(=O)N(C)C[C@@H]1Oc2ncc(C#Cc3ccccc3)cc2C(=O)N([C@@H](C)CO)C[C@@H]1C	-5.7	9.0[16.7 µM]
CNC(=O)C[C@@H]1CC[C@H]2[C@@H](COc3ccc(NC(=O)c4ccc(F)cc4)cc3C(=O)N2C)O1	-11.4	-3.4[16.7 µM]
COc1ccc(CNC(=O)C[C@@H]2CC[C@H]3[C@H](COc4ccc(NC(=O)C5CC5)cc4C(=O)N3C)O2)cc1	50.4	-3.4[16.7 µM]
CCS(=O)(=O)Nc1ccc2c(c1)C(=O)N(C)C[C@H](OC)[C@H](C)CN(C(=O)COC)[C@@H](C)CO2	3.8	-1.4[16.7 µM]
CC(C)NC(=O)N(C)C[C@H]1Oc2ccc(NC(=O)Nc3ccc(C(F)(F)F)cc3)cc2CC(=O)N([C@H](C)CO)C[C@H]1C	7.3	-1.5[16.7 µM]
C[C@@H]1CCCCO[C@@H](CN(C)S(=O)(=O)c2ccc(F)cc2)[C@@H](C)CN([C@@H](C)CO)C(=O)c2cc(NC(=O)Nc3cccc4ccccc34)ccc2O1	-9.0	11.5[16.7 µM]
CNC[C@H]1OCCCC[C@@H](C)Oc2ccc(NC(=O)Nc3ccccc3)cc2C(=O)N([C@H](C)CO)C[C@@H]1C	-5.6	-2.1[16.7 µM]
C[C@H]1CN([C@@H](C)CO)C(=O)Cc2cc(NS(=O)(=O)c3cn(C)cn3)ccc2O[C@H]1CN(C)S(=O)(=O)c1ccc(Cl)cc1	-5.3	0.6[16.7 µM]
CC(C)NC(=O)Nc1cccc2c1O[C@@H](CN(C)Cc1ccccc1)[C@@H](C)CN([C@H](C)CO)C2=O	-8.3	-24.2[16.7 µM]
CN1CCN(C(=O)C[C@H]2CC[C@@H]3[C@H](COc4ccc(NC(=O)C5CCCCC5)cc4C(=O)N3C)O2)CC1	1.8	2.6[16.7 µM]
C[C@@H]1CN([C@@H](C)CO)C(=O)Cc2cc(NC(=O)C3CCCCC3)ccc2O[C@H]1CN(C)Cc1ccc(C(=O)O)cc1	-12.8	-0.6[16.7 µM]
Cc1ccccc1-c1cnc2c(c1)C(=O)N([C@@H](C)CO)C[C@H](C)[C@@H](CN(C)C(=O)CN(C)C)O2	7.9	-19.2[16.7 µM]
